Vif TR-FRET = HIV-1 Vif–A3G interaction blockers – biochemical, TR-FRET, GST-Vif 1-94, biotin-A3G peptide, dose response retest, primary screen (AID 1117319); inhibition, %; hits with a dose series show IC50 in µM; hit rate 0.57% among 260,000; TR-FRET GST-Vif / biotin-A3G peptide binding; higher % means a stronger effect; test concentration not given here; strong numbers were not always called active;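 active means above the screen mean plus three standard deviations and confirmed in dose response; inconclusive means results disagree or hit not tested in dose response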;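 further: Vif residues 1-94 fused to GST binding biotinylated APOBEC3G peptide 110-148; 0% = full assay without inhibitor and 100% = GST in place of GST-Vif; retest series ran down from 100 µM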
HNF4A DNA FP = change in binding of human HNF4 alpha to DNA | AID 1224865 | P41235 | activity change, % at 10 µM | hit rate 0.3% among 360,000 | HNF4a-FITC DNA binding, fluorescence polarization, 1 h; in the data active means activity change above about 30%, passing the limit was not always enough;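 further: controls were the assay level and a saturating level of protein; the project sought stronger binding though the title names inhibitors; some compounds called inactive have numbers as strong as hits; positive values seem to mean higher polarization but the record does not say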
Ecoli growth = blocks Escherichia coli growth; OD600, 23 h; active compounds read low; OD600 absorbance (test concentration not listed); hit rate 0.21% among 330,000;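 active means OD600 absorbance below the run mean of sample wells minus 3.6 SD, in any replicate, cut at about 0.56 in these data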;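 further: stock transfer was 300 nL into about 60 µL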
UCH37 inh = inhibitors of human deubiquitinating enzyme UCH37 | inhibition, % (test concentration not listed) | Q9Y5K5 | purified proteasome/UCH37, Ub-AMC cleavage fluorescence | AID 588478 | hit rate 0.33% among 330,000;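 active means mean of two replicates above 20%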;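 further: 0% = compound-free wells with enzyme and 100% = wells lacking proteasome; stock transfer was 100 nL into about 20 µL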
Target sequence (Q9Y5K5 whole entry, looked up): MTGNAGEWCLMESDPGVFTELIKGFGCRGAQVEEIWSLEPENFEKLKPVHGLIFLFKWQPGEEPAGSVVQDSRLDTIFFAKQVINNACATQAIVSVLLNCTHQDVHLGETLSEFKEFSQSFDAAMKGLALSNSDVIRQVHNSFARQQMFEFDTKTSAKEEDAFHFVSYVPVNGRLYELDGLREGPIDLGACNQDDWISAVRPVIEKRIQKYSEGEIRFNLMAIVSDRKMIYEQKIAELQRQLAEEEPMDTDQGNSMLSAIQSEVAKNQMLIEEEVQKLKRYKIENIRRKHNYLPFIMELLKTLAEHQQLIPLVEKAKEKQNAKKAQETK
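Material: Human UCH37 enzyme supplied as purified proteasome complex | Schedule: 30 min preincubation with enzyme, 25 min cleavage at room temperature | Detection: AMC fluorescence 355/460 nm | Measure: % inhibition of Ub-AMC cleavage fluorescence | Controls: Wells without proteasome as full block, compound-free enzyme plus substrate as uninhibited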
FGF22 binding = shifts melting point of recombinant human FGF22; Q9HCT0; recombinant FGF22 thermal shift, SYPRO orange fluorescence; percent of sucrose octasulfate shift, DMSO zero; calls only at 9.99 µM; hit rate 1.5% among 340,000; AID 651658;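 active means melting point raised past a set limit in the mean and every replicate; inconclusive means no clear call; three in four hits are not shown here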
Target sequence (Q9HCT0 whole entry, looked up): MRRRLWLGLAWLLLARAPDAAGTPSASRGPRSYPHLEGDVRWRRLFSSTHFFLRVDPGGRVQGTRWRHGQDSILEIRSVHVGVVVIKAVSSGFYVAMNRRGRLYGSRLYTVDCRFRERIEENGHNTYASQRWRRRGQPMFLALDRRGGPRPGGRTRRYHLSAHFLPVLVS
RanGTP-Impb inh = disruptors of Ran-importin-beta complex formation – biochemical, FRET, CFP-Ran, YFP-importin-beta, homogeneous, primary screen. cell-free CFP-Ran/YFP-importin-beta FRET ratio. inhibition, % (test concentration not listed). hit rate 1.1% among 300,000. AID 2216;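 active means most replicates above 15%; inconclusive means exactly half above 15%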;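 further: 0% = DMSO wells and 100% = Ran loaded with GDP instead of GTP; wells of about 40 µL received 100 nL stock; the first replicate is given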
MLL AF4-AF9 inh = MLL-AF4/AF9 protein interaction inhibition. inhibition, % at 10 µM. hit rate 0.47% among 350,000. P42568. AlphaScreen, biotin-AF4 peptide binding to FLAG-AF9;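 active means every replicate reaching a set inhibition limit, whatever the replicate mean, cut at about 25% in these data; inconclusive means mean inhibition reaches that limit but some replicates miss it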;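 further: 0% = plate neutral control median and 100% = total signal loss; the record names both 10 and 1 µM as test concentration; the first replicate is given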
Target sequence (P42568 whole entry, looked up): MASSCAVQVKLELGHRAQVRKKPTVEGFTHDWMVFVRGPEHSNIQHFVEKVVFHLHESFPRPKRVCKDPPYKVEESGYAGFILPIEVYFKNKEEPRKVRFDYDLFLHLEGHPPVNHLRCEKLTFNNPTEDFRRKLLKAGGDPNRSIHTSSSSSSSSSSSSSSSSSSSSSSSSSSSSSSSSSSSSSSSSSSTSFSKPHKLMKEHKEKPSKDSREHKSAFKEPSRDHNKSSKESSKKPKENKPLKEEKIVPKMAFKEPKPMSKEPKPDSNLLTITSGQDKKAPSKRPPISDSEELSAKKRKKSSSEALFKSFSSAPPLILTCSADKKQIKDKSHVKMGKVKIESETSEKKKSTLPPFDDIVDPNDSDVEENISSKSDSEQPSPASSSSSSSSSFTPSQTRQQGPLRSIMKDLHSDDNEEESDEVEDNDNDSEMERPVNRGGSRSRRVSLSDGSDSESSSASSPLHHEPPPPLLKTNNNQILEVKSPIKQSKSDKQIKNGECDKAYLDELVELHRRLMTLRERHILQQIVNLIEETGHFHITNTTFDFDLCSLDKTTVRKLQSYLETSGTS
* hit, by the source's call; i = inactive; ? = inconclusive; · = no result given; & = joins results of further samples.

SMILES	Vif TR-FRET	HNF4A DNA FP	Ecoli growth	UCH37 inh	FGF22 binding	RanGTP-Impb inh	MLL AF4-AF9 inh
O=C(NCc1ccccc1Cl)C1CCC(=O)N1Cc1ccc(F)cc1 (centres undefined)	-1%	-3.6	0.68	0.6	i	3.9	-0.5
O=C(NNc1cccc(Cl)n1)Nc1ccccc1F	-9%	-0.3	0.71	2.4	i	1.8	-2.2
CCOc1ccc(NS(=O)(=O)c2ccc(C(=O)N3CCCC(C)C3)cc2)cc1 (centres undefined)	-5%	2.2	0.66	-1.2	i	-2.6	3.9
CCOC(=O)Cn1nc(C)n(-c2ccc(F)cc2)c1=O	-17%	1.9	0.71	6.4	i	2.0	1.7
COc1cnc(-c2ccccn2)nc1Oc1cccc(Cl)c1	7%	4.2	0.65	5.7	·	-1.3	·
COC(=O)NNC(=S)Nc1ccc(Br)cc1	-2%	0.0	0.63	-0.2	i	3.1	-1.6
COCCCNc1nc2ccccc2nc1NS(=O)(=O)c1ccc(Cl)cc1	-6%	-3.5	0.67	-41	i	-7.8	-0.6
NC(=O)Cn1c(=O)oc2ccccc21	-5%	-1.1	0.67	1.1	·	1.7	·
COc1c2c(cc3ccc(=O)oc13)CCO2	-11%	3.5	0.67	-133	i	0.1	0.7
CCN(Cc1nc2cc(Cl)ccc2c(=O)[nH]1)C(=O)c1nn(C)c(=O)c2ccccc12	-10%	-3.2	0.68	2.0	i	·	-0.4
CC(C)(C)NC(=O)CCCCCCCC(=O)NC(C)(C)C	·	0.4	0.69	4.3	i	5.0	-9.5
CC(C)CC(=O)Nc1nnc(SCC(=O)NC2CCCC2)s1	-3%	1.8	·	·	i	·	-1.4
CCOC(=O)Nc1cc2c(cc1C(C)=O)OCO2	3%	0.9	0.65	-138	·	-1.2	·
Cc1cc(C)n(CCNC(=O)[C@H]2O[C@@H](n3ccc(N)nc3=O)[C@H](O)[C@@H]2O)n1	·	2.7	·	·	i	·	-3.0
CSCCC(NC(=O)c1ccccc1)C(=O)NCc1ccco1 (centres undefined)	-7%	0.5	0.68	3.8	·	1.0	·
O=C(NC1CCCCC1)NC1CC2CCC(C1)N2C(=O)NCc1ccccc1 (centres undefined)	3%	·	0.66	1.5	·	6.2	·
CC(=O)Nc1cccc(NC(=O)CSc2ncc(C(=O)Nc3ccc(F)cc3)c(=O)n2C)c1	4%	4.0	0.66	9.1	i	1.9	0.7
CCc1cc(-c2n[nH]c(=S)n2-c2cccc(C)c2)cs1	4%	4.5	0.66	3.5	·	1.0	·
O=S1(=O)N[C@@H](Cc2ccccc2)COc2cc(N3CCN(Cc4ccccc4F)CC3)ccc21	·	2.6	·	·	i	·	-0.3
Fc1cccc(CSc2ccc3nnc(-c4cccnc4)n3n2)c1	-8%	-0.7	0.7	2.5	i	0.9	2.2
Cc1cccc(-n2c(O)cnc2Nc2nc(C)cc(C)n2)c1	5%	3.6	0.67	2.7	i	2.1	-2.5
O=C(Nc1ccccc1O)c1c(O)c2c([nH]c1=O)CCCC2	13%	-0.9	·	·	i	4.5	-1.0
CC(=O)Nc1ccc(NC(=O)CCSCCc2ccccn2)cc1	?	1.1	0.69	3.3	i	-1.1	-11
Cc1ccc(CNC(=O)CCS(=O)(=O)c2ccc(Br)s2)o1	6%	-2.6	0.73	-2.7	·	2.2	·
Cc1ccc(C2C(C#N)=C(N)Oc3c2oc(CO)cc3=O)o1 (centres undefined)	2µM*	3.1	0.71	4.4	·	-3.6	·
CCCC1OC23CCCCC2C(C#N)(C(=N)O3)C1(C#N)C#N (centres undefined)	32%	-3.6	0.66	-2.6	·	33*	·
O=C(c1ccc2c(=O)n3c(nc2c1)CCC3)N1CCN(S(=O)(=O)c2cccc(F)c2)CC1	3%	0.3	0.69	-4.6	i	0.0	-19
O=C(OCc1nnc(-c2ccccc2)o1)c1ccc2c(c1)OCO2	4%	-3.3	0.66	1.2	·	-1.6	·
CC(=O)Nc1ncc(Cc2cccc(Cl)c2Cl)s1	?	3.6	0.71	0.3	i	-1.3	-3.0
FC(F)(F)c1ccc(Oc2ccccc2Cl)nc1	-1%	4.6	0.69	1.9	i	-1.5	-0.7
CN1C(=O)C(O)(C2COC(C)(C)CC2=O)c2cc(Br)ccc21 (centres undefined)	-4%	-0.1	0.7	1.5	·	1.4	·
COc1ccc(OC)c(N2C(=O)[C@@H]3C(c4ccccc4Cl)=NO[C@@H]3C2=O)c1	>100µM*	-36	0.77	5.9	·	-2.8	·
CCCOC(=O)Nc1ccccc1C(N)=O	2%	0.1	0.71	3.2	·	4.3	·
Cc1ccc(N=Cc2c(O)cc(C)oc2=O)c(C)c1	·	1.7	0.65	-1.6	i	4.3	-0.1
CC1=CC(C)(C)N2C(=O)C3(C(C#N)=C(N)Oc4cc(C)oc(=O)c43)c3cc(C)cc1c32 (centres undefined)	-4%	3.8	0.76	-1.2	·	-1.0	·
CCOC(=O)C1=C(O)C(=O)N(c2ccccc2)C1c1cccc([N+](=O)[O-])c1 (centres undefined)	2%	-0.8	0.67	6.0	i	2.1	1.3
CC(=O)c1ccc(NC(=S)N2c3ccccc3CC2C)cc1 (centres undefined)	2%	-3.6	0.62	3.9	i	-3.0	0.8
O=C(c1ccc2c(c1)OCO2)C1CCCN(Cc2ccc(OC(F)F)cc2)C1 (centres undefined)	·	0.2	0.69	1.8	i	0.9	-3.8
c1ccc(-c2csc3ncnc(NCCN4CCOCC4)c23)cc1	3%	-4.2	0.67	4.9	·	-1.3	·
Cc1cc(C)c(S(=O)(=O)c2cc(F)ccc2C)c(=O)[nH]1	4%	1.6	0.62	-0.7	i	-2.2	0.9

One compound at a time, from the list above. Values in the order: Vif TR-FRET | HNF4A DNA FP | Ecoli growth | UCH37 inh | FGF22 binding | RanGTP-Impb inh | MLL AF4-AF9 inh
CCOC(=O)C1=C(O)C(=O)N(c2ccccc2)C1c1cccc([N+](=O)[O-])c1 (centres undefined) is listed as 2% | -0.8 | 0.67 | 6.0 | i | 2.1 | 1.3
c1ccc(-c2csc3ncnc(NCCN4CCOCC4)c23)cc1 is listed as 3% | -4.2 | 0.67 | 4.9 | · | -1.3 | ·
Cc1ccc(C2C(C#N)=C(N)Oc3c2oc(CO)cc3=O)o1 (centres undefined) is listed as 2µM* | 3.1 | 0.71 | 4.4 | · | -3.6 | ·

The list goes on.
SMILES	Vif TR-FRET	HNF4A DNA FP	Ecoli growth	UCH37 inh	FGF22 binding	RanGTP-Impb inh	MLL AF4-AF9 inh
COc1ccc(N(CC(O)Cn2c(C)nc3ccccc32)S(=O)(=O)c2ccccc2)cc1 (centres undefined)	-3%	2.7	0.75	1.7	·	-2.7	·
CCc1ccccc1NC(=O)c1ccc(CN2CCC(Cc3ccccc3)CC2)cc1	2%	-1.1	0.73	-0.4	·	-1.2	·
COc1ccc(NC(=O)C2CC(=O)NC(Nc3cccc(C)c3)=N2)cc1 (centres undefined)	7%	-3.7	0.76	1.9	·	-1.6	·
CCOC(=O)c1cnc2nc(NCc3ccc(OCc4ccccc4)cc3)[nH]n2c1=O	?	4.2	0.6	2.6	·	1.4	·
COc1cc(CSc2nnnn2-c2ccc(C)cc2)cc(OC)c1OC	-7%	0.3	0.67	2.8	·	1.3	·
COC(=O)[C@]1(Cc2ccccc2)N[C@H](CN(C)C(=O)Nc2ccc(F)cc2)[C@@H]2C(=O)N(Cc3ccccc3)C(=O)[C@@H]21	1%	5.2	0.72	0.7	i	·	1.6
CC(C)CC1NC(=O)c2cccnc2-n2c1nc1ccccc1c2=O (centres undefined)	3%	0.7	·	·	i	·	-2.3
COc1ccc(N2CCN(Cc3oc(CO)cc(=O)c3O)CC2)cc1	1%	1.7	0.72	-1.7	·	3.1	·
Cc1cc(Oc2ccc(-c3ccccc3)cc2)nc(N2CCOCC2)n1	31%	0.5	0.65	4.6	·	-2.2	·
CCn1cc(C(=O)O)c(=O)c2cc(F)c(N3CCN(C(=S)NC(=O)c4cccc(C)c4)CC3)cc21	1%	3.4	0.071*	-10	i	-0.7	-13
COc1ccc(/C=C/C(=O)NCCOc2ccc(C)cc2)cc1	-2%	-0.6	0.69	4.2	·	-0.7	·
O=C(Nc1ccc(S(=O)(=O)NCc2ccco2)cc1)c1ccc(F)cc1	·	-3.2	0.68	1.1	i	9.1	0.1
Cc1onc(-c2ccccc2)c1-c1nnc(COC(=O)c2ccc(O)cc2)o1	-2%	7.0	0.7	5.7	i	·	-6.7
O=C(NCc1ccccc1Cl)c1csc2c1CCCCC2	8.3µM*	-3.0	0.72	-1.7	·	-5.6	·
COCCNC(=O)CSc1nnc(CCCN2C(=O)c3cccc4cccc(c34)C2=O)n1-c1ccccc1	·	-0.1	0.67	-48	·	-1.8	·
O=C(COc1ccc(Cl)cc1Cl)NN1C(=O)/C(=C\c2ccc(Cl)cc2)SC1=S	-9%	-2.1	0.71	9.5	i	-2.7	-1.9
CCOC(=O)c1oc2cc(O)ccc2c(=O)c1-c1ccccc1OC	5%	-0.1	0.69	1.7	·	3.3	·
Cn1ncc([N+](=O)[O-])c1C(=O)N/N=C/c1c[nH]c2ccccc12	?	1.2	·	·	i	2.1	-1.1
CCCCc1ccc(NC(=O)CSC2=C(C#N)C(c3ccco3)C3=C(CCCC3=O)N2)cc1 (centres undefined)	8%	-3.2	0.69	-1.8	·	-2.2	·
COc1ccc(Cl)cc1C(=O)NCc1ccc2c(c1)OCO2	-5%	-4.1	0.64	1.1	i	-0.4	-1.5
CCC(=O)Nc1ccc(OCC2CCCO2)cc1 (centres undefined)	·	3.9	0.65	0.1	i	1.1	-0.6
CCOC(=O)C1CCCN(C(=O)c2cccc([N+](=O)[O-])c2C)C1 (centres undefined)	·	1.3	0.68	2.3	i	4.1	-1.1
CCN(C(=O)CN1C(=O)COc2ccc(S(=O)(=O)N3CCCCCC3)cc21)c1cccc(C)c1	0%	1.6	0.69	2.9	i	6.4	8.6
CCN1C(=O)C2(C(C(=O)c3cc4ccccc4o3)=C(O)C(=O)N2CCCN(C)C)c2ccccc21 (centres undefined)	-39%	·	0.69	6.6	·	2.6	·
C[C@@H]1CCCCO[C@@H](CN(C)C(=O)Nc2ccc3c(c2)OCO3)[C@@H](C)CN([C@H](C)CO)C(=O)c2cc(N(C)C)ccc2O1	3%	0.7	·	·	i	·	5.8&-7.1&5.5
COc1ccc(C(=O)OCc2c(-c3cccc(OC)c3)ncc3ccccc23)cc1	·	0.8	0.72	3.8	i	·	-2.1
CCc1nn(CC(=O)NCCCN(CC)c2cccc(C)c2)c(=O)c2cc3occc3n12	-12%	·	0.69	2.1	·	1.8	·
CN1CCN(c2ccc(CNC[C@H]3O[C@@H](n4cnc5c(=O)[nH]c(N)nc54)[C@H](O)[C@@H]3O)c(F)c2)CC1	·	-0.2	·	·	i	·	0.4
CCn1c2ccccc2c2nnc(SCC(=O)N(C)C3CCS(=O)(=O)C3)nc21 (centres undefined)	26%	3.2	0.69	8.4	·	3.2	·
CSc1cccc(NC(=S)N(CCN(C)C)C(C)c2ccccn2)c1 (centres undefined)	-6%	-3.6	0.68	5.3	i	-3.3	2.8
Cc1ccccc1NC(=O)C(c1ccccc1)C1CCCC1 (centres undefined)	·	-1.2	0.72	3.6	i	-0.4	-6.9
COc1cccc(NC(=O)CSc2nnc(Cc3cccn3C)n2-c2ccc(F)cc2)c1	2%	0.5	0.75	0.6	i	-0.4	2.7
O=C(c1ccc(S(=O)(=O)N2CCCC2)cc1)N(c1ccc(F)cc1)C1C=CS(=O)(=O)C1 (centres undefined)	1%	3.8	0.73	-1.6	i	0.9	0.8
CC(=O)Nc1ccc(NC(=O)C(C)OC(=O)c2cccc(S(=O)(=O)N3CCCC3)c2)cc1 (centres undefined)	4%	0.3	0.7	1.0	i	-1.3	-22

The list is partial. The share of hits here may be higher or lower than overall.
